Screening results (PubChem)
HTT promoter inh = inhibitors of huntingtin promoter activity; HEK293 HTT promoter firefly luciferase reporter (activity 0% = vehicle and -100% = no light), 24 h; Potency, µM (doses to about 57.5 µM), for inactives: at the top dose activity change, negative = inhibition, usual class: inhibitors; 48,000 compounds, 0.93% hits; AID 1508623; active means well fitted inhibition curve with a large enough effect; inconclusive means small, poorly fitted or top-dose-only effect; inactive means no such curve, though single readings can be large or run the other way; further: nearly all actives have a fitted effect of over 50% in size
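HEK293 luciferase promoter-reporter cells (2,500/well) plated 24 h, then compounds added at up to 57.5 uM final for 24 h at 37 °C. Firefly luminescence by Dual-Glo, normalized to vehicle (0%) and zero RLU (-100%).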
PMP22 txn prim = modulates PMP22 transcription in S16 Schwann cells; AID 1508649; Potency, µM (series often up to 57.5 µM), inactives show at the top dose activity change, negative = inhibition, most hits filed as inhibitors; 43,000 compounds, 2% hits; S16 Pmp22-F2sN Schwann cells (luciferase reporters placed in the Pmp22 gene), FLuc/NLuc coincidence luminescence, 24 h; active = clear falling dose curves in both reporters; inconclusive = both reporters move, but less clearly or upward; inactive = either reporter flat; the % is the NLuc reporter signal; further: on the % scale 0 is the no-effect control and ±100 the full control effect; some results filed as inactive show a strong effect at the top dose
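Reporter cells (S16 Pmp22-F2sN, 500–1,000 per well) exposed to compounds for 24 h, 37C, 5% CO2; lysis with FLuc read after 10 min, then Stop&Glo and NLuc read after 10 min.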
* hit, by the source's call; [ ] = dose if it differs, or a comment. Potency means the concentration at half of the fitted maximal effect.

What do the screens show for `COc1cccc(OCC(=O)NC2CC(=O)N(c3ccc4c(c3)OCCO4)C2)c1` (stereo not given)?
HTT promoter inh: -10.2%; PMP22 txn prim: -7.9%

Results for COc1ccc(Cl)cc1NC(=O)CCC(=O)N1CCOc2ccccc21 ?
HTT promoter inh: -29.9%; PMP22 txn prim: 0.1%

Results for CCC(=O)N1CCc2cc(Br)cc(S(=O)(=O)CCC(=O)NCc3ccccc3OC)c21 ?
HTT promoter inh: -20.5%; PMP22 txn prim: inconclusive

What do the screens show for `COC(=O)c1ccccc1NC(=O)CCc1c(C)nc2c(c(C)nn2-c2ccccc2)c1C`?
HTT promoter inh: 11.4%; PMP22 txn prim: 1.5%

What do the screens show for `Cc1nc(N2CCOCC2)c2c(C(=O)N(C)Cc3ccccc3)c(C)oc2n1`?
HTT promoter inh: 2.2%; PMP22 txn prim: -5.9%

Results for Cn1c(=O)c2c(nc(SCC(=O)Nc3ccc(F)cc3)n2Cc2ccccc2)n(C)c1=O ?
HTT promoter inh: -11.4%; PMP22 txn prim: -31.6%

How did Nc1ccc2cc3ccc(N)cc3nc2c1 do in these assays?
HTT promoter inh: inconclusive

Results for CN(c1ncnc2onc(-c3cccc(Cl)c3)c12)C1CCCCC1 ?
HTT promoter inh: inconclusive; PMP22 txn prim: inconclusive

Results for CCOC(=O)Cn1c(C2CC(=O)N(c3ccc(C)cc3)C2)nc2ccccc21 (stereo not given) ?
HTT promoter inh: -14.1%; PMP22 txn prim: 13.1%

What do the screens show for `Cc1cccc(N2CCN(S(=O)(=O)c3ccc4c(c3)CCCN4C(=O)C3CCC3)CC2C)c1` (stereo not given)?
HTT promoter inh: -22.9%; PMP22 txn prim: inconclusive

How did CCc1ccc(CNC(=O)C2COc3ccc(OC)cc3C2)cc1 (stereo not given) do in these assays?
HTT promoter inh: -14.0%; PMP22 txn prim: -8.9%

Results for COc1ccccc1CNC(=O)CCc1c(C)nn(-c2ccc(N3CCOCC3)nn2)c1C ?
HTT promoter inh: -15.9%; PMP22 txn prim: 0.7%

Results for COc1ccccc1N1CCN(c2csc3ccc(Cl)cc3c2=O)CC1 ?
HTT promoter inh: -8.3%; PMP22 txn prim: -21.9%

How did Cc1ccc(N2CCN(C(=O)c3c(C)oc4nc(C)nc(N5CCCC5)c34)CC2)c(C)c1 do in these assays?
HTT promoter inh: inconclusive; PMP22 txn prim: inconclusive

How did CCCC(O)c1nc2ccccc2n1CCCOc1ccc(Cl)cc1 (stereo not given) do in these assays?
HTT promoter inh: inconclusive; PMP22 txn prim: -51.5%

How did CCOc1ccc(OCC)c(NC(=O)Cn2ncc3c4ccccc4n(Cc4ccccc4)c3c2=O)c1 do in these assays?
HTT promoter inh: 0.0%; PMP22 txn prim: -3.8%

How did N#Cc1ccc(NC(=O)COCc2cc(-c3ccc4c(c3)OCO4)on2)cc1 do in these assays?
HTT promoter inh: -9.2%; PMP22 txn prim: -10.6%

What do the screens show for `Cn1c(=O)c2nc(SCC(=O)Nc3cc(Cl)ccc3Cl)n(C)c2n(C)c1=O`?
HTT promoter inh: -7.8%; PMP22 txn prim: -2.5%

Results for CCn1c(C(=O)NCCc2ccc(S(N)(=O)=O)cc2)cc2sc(Cl)cc21 ?
HTT promoter inh: inconclusive; PMP22 txn prim: -20.3%

How did CN(Cc1ccccc1)S(=O)(=O)c1ccc(F)c(C(=O)Nc2cc(Cl)cc(Cl)c2)c1 do in these assays?
HTT promoter inh: -28.4%; PMP22 txn prim: inconclusive

Results for COc1cc(C2CC(=O)Nc3c2c(=O)n(C)c2ncnn32)cc(OC)c1OC (stereo not given) ?
HTT promoter inh: -1.7%; PMP22 txn prim: -6.7%

What do the screens show for `CC1CCCN(S(=O)(=O)c2cc(C(=O)NCc3ccccc3Cl)n(C)c2)C1` (stereo not given)?
HTT promoter inh: inconclusive; PMP22 txn prim: -15.6%

What do the screens show for `FC(F)c1nc2ccccc2n1-c1nc(N2CCOCC2)nc(N2CCOCC2)n1`?
HTT promoter inh: inconclusive

How did Cn1c(SCC(=O)c2ccc(F)cc2)nnc1-c1ccccc1Br do in these assays?
HTT promoter inh: -39.6%; PMP22 txn prim: -26.8%

How did COc1ccc(C)cc1NC(=O)C1CCN(S(=O)(=O)c2cc(Br)cc3c2N(C(C)=O)CC3)CC1 do in these assays?
HTT promoter inh: -6.8%; PMP22 txn prim: -26.7%

What do the screens show for `Cc1ccc(NC(=O)c2c(N3CCCC3=O)c3cc(C)ccc3n2C)c(C)c1`?
HTT promoter inh: -16.3%; PMP22 txn prim: -24.9%

What do the screens show for `CCOc1ccc(CC(=O)Nc2ccc3nc(N4CCCCC4)cc(C)c3c2)cc1OCC`?
HTT promoter inh: -8.1%; PMP22 txn prim: -49.3%

How did CCCC1=Nc2cc(C(=O)NCCc3ccc(OCC)cc3)ccc2Sc2ccccc21 do in these assays?
HTT promoter inh: inconclusive; PMP22 txn prim: inconclusive

Results for CCc1ccc(NC(=O)c2sc3nc(C)c(C(=O)Nc4ccc(C)cc4C)c(-c4ccco4)c3c2N)cc1 ?
HTT promoter inh: -26.5%; PMP22 txn prim: -30.8%

How did Cc1ccc(C)c(N2CCN(c3nc4ccccc4c4nc(CCn5nc(C)cc5C)nn34)CC2)c1 do in these assays?
HTT promoter inh: -1.8%; PMP22 txn prim: -20.8%

What do the screens show for `Cc1c(NC(=O)c2cc3ccccc3o2)cccc1-c1nc2ccccc2o1`?
HTT promoter inh: inconclusive; PMP22 txn prim: -6.3%

Results for O=C(Nc1ccc2nc(SCC(=O)N3CCCC3)sc2c1)c1ccccc1 ?
HTT promoter inh: 3.3%; PMP22 txn prim: 5.1%

What do the screens show for `Cc1c(CNC(C)CCc2ccccc2)c(C(=O)O)c(C)n1Cc1ccc(F)cc1Cl` (stereo not given)?
HTT promoter inh: -22.3%; PMP22 txn prim: 18.3%

How did COc1ccccc1Nc1nn2c(=O)c3ccc(C(=O)NCCC4=CCCCC4)cc3nc2s1 do in these assays?
HTT promoter inh: 10µM*; PMP22 txn prim: 2.99µM*

Results for COc1ccc(NC(=O)CCc2c(C)nc3c(c2C)c(=O)n(C)c(=O)n3C)cc1OC ?
HTT promoter inh: -6.2%; PMP22 txn prim: -12.6%

What do the screens show for `CC(=O)c1cccc(NS(=O)(=O)c2cc3c(cc2C)N(C(C)=O)CCO3)c1`?
HTT promoter inh: 8.5%; PMP22 txn prim: -19.9%

How did COc1ccc(NC(=O)CSc2nnc(-c3nonc3NC(C)=O)n2-c2ccccc2)cc1 do in these assays?
HTT promoter inh: -15.3%; PMP22 txn prim: 28.4%

Results for CC1=C(C(=O)Nc2ccccc2)C(c2ccncc2)n2nc(SCc3ccccc3F)nc2N1 (stereo not given) ?
HTT promoter inh: -6.7%; PMP22 txn prim: -10.7%

How did Cc1ccc(N2CC(NC(=O)c3cc4ccccc4o3)CC2=O)cc1C (stereo not given) do in these assays?
HTT promoter inh: -22.8%; PMP22 txn prim: 3.7%

How did O=c1c2cc3c(cc2nc2sc(Nc4ccccc4)nn12)OCO3 do in these assays?
HTT promoter inh: 39.6%[activator]; PMP22 txn prim: -3.8%

Results for Cc1nn(-c2ccccc2)c2sc(C(=O)Nc3cccc(Br)c3)cc12 ?
HTT promoter inh: inconclusive; PMP22 txn prim: inconclusive

What do the screens show for `COc1ccc(CCNC(=O)c2c3c(nc4ccccc24)C(=O)N(C2CCCCC2)C3)cc1OC`?
HTT promoter inh: -22.0%; PMP22 txn prim: 9.5%

What do the screens show for `Cc1ccccc1OCc1nc2c3cnn(-c4cccc(F)c4)c3ncn2n1`?
HTT promoter inh: -8.7%; PMP22 txn prim: 0.3%

How did C=C(C)[C@@H]1CC[C@]2(C(=O)O)CC[C@]3(C)[C@H](CC[C@@H]4[C@@]5(C)CC[C@H](O)C(C)(C)[C@@H]5CC[C@]43C)[C@@H]12 do in these assays?
HTT promoter inh: -15.2%

Results for O=C(Nc1cc(-c2nc3ccccc3o2)ccc1Cl)c1ccc(Br)o1 ?
HTT promoter inh: 25.4%; PMP22 txn prim: -71.9%

How did O=C(NCCc1ccccc1)C1(c2cccs2)CCOCC1 do in these assays?
HTT promoter inh: -7.4%; PMP22 txn prim: -13.2%

How did O=C(CCc1ccccc1)NCc1ccc2c(c1)CCN2C(=O)c1ccc(Cl)cc1 do in these assays?
HTT promoter inh: -5.9%; PMP22 txn prim: -19.8%

Results for CC1CCN(S(=O)(=O)c2ccc3c(c2)N(CC(=O)NCc2ccccc2Cl)C(=O)CO3)CC1 ?
HTT promoter inh: -14.8%; PMP22 txn prim: -57.7%

How did Cc1ccc(NC(=O)c2cccc(NC(=O)N3CCSc4ncccc43)c2)cc1F do in these assays?
HTT promoter inh: 1.6%; PMP22 txn prim: -21.3%

What do the screens show for `Cn1c(=O)c2c(nc(SCC(=O)Nc3ccccc3)n2Cc2ccccc2F)n(C)c1=O`?
HTT promoter inh: 1.1%; PMP22 txn prim: -26.2%

Results for CCNc1sc(S(C)(=O)=O)nc1S(=O)(=O)c1ccc(C)cc1 ?
HTT promoter inh: -21.5%; PMP22 txn prim: 28.1%

Results for Cc1cc(C)n(-c2nc3cc(Cl)ccc3nc2Nc2ccc(CC(=O)O)cc2)n1 ?
HTT promoter inh: 1.8%; PMP22 txn prim: 2.7%

How did CCc1cccc(N2C(=O)N(Cc3c(F)cccc3Cl)c3ccccc3S2(=O)=O)c1 do in these assays?
HTT promoter inh: -9.5%; PMP22 txn prim: -12.2%

How did Cc1ccc(C(=O)OC2=C(C(=O)c3ccccc3)N(C)S(=O)(=O)c3ccccc32)cc1 do in these assays?
HTT promoter inh: inconclusive; PMP22 txn prim: -1.6%

Results for O=C(O)Cc1ccc(NC2(c3ccccc3)C(=O)c3ccccc3C2=O)cc1 ?
HTT promoter inh: -1.4%; PMP22 txn prim: inconclusive

What do the screens show for `CCOC(=O)c1cnc2c(C)cccc2c1NCCc1ccc(OC)c(OC)c1`?
HTT promoter inh: -28.6%; PMP22 txn prim: inconclusive

Results for Cc1cccc2nc(-c3cccc(NS(=O)(=O)c4ccccc4)c3)cn12 ?
HTT promoter inh: -35.6%; PMP22 txn prim: inconclusive

Results for O=C(CCn1c(=O)c2cccn2c2cccnc21)NCc1ccc(Cl)cc1 ?
HTT promoter inh: 1.2%; PMP22 txn prim: -2.7%

What do the screens show for `Cc1nc2nc(NC(=O)c3ccccc3F)[nH]n2c(=O)c1Cl`?
HTT promoter inh: -2.9%; PMP22 txn prim: 0.1%

How did Cc1ccc2nc(-c3ccsc3)c(Nc3ccc(Cl)cc3)n2c1 do in these assays?
HTT promoter inh: -8.7%; PMP22 txn prim: inconclusive

In the list so far, these contain bromine.
Results for CCC(=O)N1CCc2cc(Br)cc(S(=O)(=O)CCC(=O)NCc3ccccc3OC)c21 ?
HTT promoter inh: -20.5%; PMP22 txn prim: inconclusive

How did Cn1c(SCC(=O)c2ccc(F)cc2)nnc1-c1ccccc1Br do in these assays?
HTT promoter inh: -39.6%; PMP22 txn prim: -26.8%

How did COc1ccc(C)cc1NC(=O)C1CCN(S(=O)(=O)c2cc(Br)cc3c2N(C(C)=O)CC3)CC1 do in these assays?
HTT promoter inh: -6.8%; PMP22 txn prim: -26.7%

Results for Cc1nn(-c2ccccc2)c2sc(C(=O)Nc3cccc(Br)c3)cc12 ?
HTT promoter inh: inconclusive; PMP22 txn prim: inconclusive

Results for O=C(Nc1cc(-c2nc3ccccc3o2)ccc1Cl)c1ccc(Br)o1 ?
HTT promoter inh: 25.4%; PMP22 txn prim: -71.9%

Remaining list, next part
Results for Cc1ccc(CCNC(=O)c2ccc3c(=O)n(-c4ccccc4)c(=O)[nH]c3c2)cc1 ?
HTT promoter inh: inconclusive; PMP22 txn prim: 0.6%

What do the screens show for `COc1ccc(Cn2c(=O)c3cccnc3n(Cc3cccc(OC)c3)c2=O)cc1`?
HTT promoter inh: -21.5%; PMP22 txn prim: inconclusive

How did CCOc1ccc(CNC(=O)c2ccc(CS(=O)Cc3ccc(Cl)cc3)o2)cc1 (stereo not given) do in these assays?
HTT promoter inh: -4.4%; PMP22 txn prim: -13.2%

What do the screens show for `COc1ccc(C2C=C(c3ccccc3)Nc3nc(NC(=O)c4ccc(C)cc4)nn32)cc1` (stereo not given)?
HTT promoter inh: -18.7%; PMP22 txn prim: inconclusive

Results for Cc1cc2nc(-c3ccc(OCc4ccccc4)cc3)cc(C(F)(F)F)n2n1 ?
HTT promoter inh: -4.5%; PMP22 txn prim: -25.4%

What do the screens show for `Cc1ccc(NC(=O)c2c(C)cc(C)nc2SCC(=O)Nc2ccc(Br)cc2)cc1`?
HTT promoter inh: inconclusive; PMP22 txn prim: -11.1%

Results for Cc1cccc(C(=O)Nc2cccc(C(=O)OCc3cc(=O)n4c5c(sc4n3)CCCC5)c2)c1 ?
HTT promoter inh: inconclusive; PMP22 txn prim: -1.6%

How did Cc1cccc(CNC(=O)c2ccc3c(c2)N(C)C(=O)C2CCCCN32)c1 (stereo not given) do in these assays?
HTT promoter inh: -1.6%; PMP22 txn prim: -28.3%

What do the screens show for `Cc1cccc(C)c1NC(=O)C(=O)NCC(c1ccc2c(c1)OCO2)N1CCN(C)CC1` (stereo not given)?
HTT promoter inh: -9.9%; PMP22 txn prim: -44.2%

How did C#CCn1c(=NC(=O)c2ccc3c(c2)OCCO3)sc2cc(OC)c(OC)cc21 do in these assays?
HTT promoter inh: -4.1%; PMP22 txn prim: inconclusive
